GIV-Gai inh = blocks GIV peptide binding to rat Galpha-i3. Galpha-i3/FITC-GIV peptide fluorescence polarization, 90 min; hits give low values; scaled: aluminum fluoride 0%, vehicle 100%. P08753. AID 1224905. percent of control (FP), % (test concentration not listed). 0.42% of 210,000 active;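 active means replicate mean at 85% of control or lower, very high polarization wells dropped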;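 further: wells of about 15 µL received 100 nL stock; the first replicate is given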
Target sequence (P08753 whole entry, looked up): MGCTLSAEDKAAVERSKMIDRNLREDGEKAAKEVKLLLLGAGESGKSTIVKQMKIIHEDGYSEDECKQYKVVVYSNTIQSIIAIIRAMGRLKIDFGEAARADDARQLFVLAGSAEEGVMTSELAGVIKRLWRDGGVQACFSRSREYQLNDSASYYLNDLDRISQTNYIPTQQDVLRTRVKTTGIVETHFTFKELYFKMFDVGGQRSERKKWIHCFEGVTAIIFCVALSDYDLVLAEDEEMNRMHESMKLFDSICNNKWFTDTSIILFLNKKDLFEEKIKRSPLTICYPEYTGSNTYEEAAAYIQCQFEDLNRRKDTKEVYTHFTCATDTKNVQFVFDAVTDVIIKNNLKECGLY
HCMV UL50-53 inh = disrupts HCMV UL50-UL53 complex binding; inhibition, % (concentration not given with the values); 0.15% of 190,000 active; AID 1918969; HTRF UL50-UL53 interaction, normalized percent inhibition;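 active means both replicates at 50% or more, plus weaker picks with an unusually low signal ratio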;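 further: stock transfer was 100 nL into about 20 µL; 0% = negative control wells and 100% = wells with untagged competitor protein; inactives centre near -12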
Sa growth inh = inhibitors of Staphylococcus aureus growth at 42 °C; relative growth, % (no concentration beside the values); S. aureus RN4220 growth, OD600, 20 h; hits give low values; AID 720641; 0.53% of 170,000 active;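 active means growth at 42 °C up to 50% and 20 or more points under that at 30 °C, or under 10% at both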;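 further: 300 nL library stock went into each well; scaled to the means of positive and negative controls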
Sa growth inh second temp = second read-out of Sa growth inh, no call of its own (marks repeat the call); relative growth, %; measured here: growth at 30 °C;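 optical density after 20 h as mean of two plates; 100% = untreated growth and lower means inhibition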
* marks the source's active call; other numbers are inactive results; / = not tested or not shown; & = joins results of further samples.

Values run as follows: Sa growth inh, Sa growth inh second temp, GIV-Gai inh, HCMV UL50-53 inh
COc1ccc(C2C(C(=O)NCc3ccco3)CCC(=O)N2c2ccc(OC)cc2)cc1 (stereo not given)
→ 111, 86, 102, 2
O=C(CC1CCN(S(=O)(=O)c2ccccc2)CC1)N1CCN(c2ccccn2)CC1
→ /, /, 96, -13
Cc1cccc(-c2noc(CN(C(=O)CCCN3C(=O)c4ccccc4C3=O)C3CCCCC3)n2)c1
→ 121, 94, 106, 6
CCOc1cc(C2C(C(=O)OCCOC)=C(C)NC3=C2C(=O)CC(c2ccc(Cl)cc2)C3)cc(Br)c1O (stereo not given)
→ /, /, 104, -8
COc1c2c(c(CSc3nnnn3-c3ccccc3)c(OC)c1OC)C(=O)OC2
→ 96, 85, /, -10
CCOC(=O)C1=C(C)NC2=C(C(=O)CC(c3ccc(OC)c(OC)c3)C2)C1c1ccc(OCC)c(OC)c1 (stereo not given)
→ /, /, 102, -6
O=C1CCCN1C(=O)CSc1nnc2c(Cl)cc(Cl)cn12
→ 86, 87, /, -74
Oc1ccccc1C=Nc1ccccc1C(F)(F)F
→ 94, 86, 100, -15
CCN1CCSC1=NCc1cccs1
→ 81, 88, /, -10
CCOC(=O)N1CCN(S(=O)(=O)N2CCCC(C(=O)NCc3ccc(OC)cc3OC)C2)CC1 (stereo not given)
→ 120, 85, 102, /
COc1ccc(CNC(=O)c2cccn2-c2nnc(N3CCCC3)s2)c(OC)c1
→ 75, 86, 99, /
O=C(/C=C/c1ccc2c(c1)OCO2)Nc1ccc(S(=O)(=O)N2CCCCC2c2cccnc2)cc1 (stereo not given)
→ 103, 104, 105, -6
CN(CC(=O)Nc1sc2c(c1C#N)CCC2)Cc1nc2ccccc2c(=O)[nH]1
→ 95, 87, /, -28
CCn1c2ccc(C)cc2c2nc(C)sc21
→ 66, 52, 92, 54*
CC1CCc2c(sc(NC(=O)COC(=O)c3ccco3)c2C#N)C1 (stereo not given)
→ 99, 90, /, 0
CN(C)c1ccc(CN(CC2CCCO2)C(=O)c2ccc(Cl)cc2)cc1 (stereo not given)
→ /, /, 101, -14
Cc1ccccc1OC1C(=O)N(CC2CCCO2)C1c1ccc2c(c1)OCO2 (stereo not given)
→ 99, 74, 99, -18
CC1CC(C)CN(C(=O)c2coc(=O)c3ccccc23)C1 (stereo not given)
→ 100, 85, 98, -1
CCCCN(C(C)C)S(=O)(=O)c1ccc(C)cc1
→ 106, 102, 103, 19
CC(=O)NC(=S)Nc1cccc(C#N)c1
→ 106, 101, 109, 6

Some of these compounds in order of length of the SMILES, lowest first.
Values run as follows: Sa growth inh, Sa growth inh second temp, GIV-Gai inh, HCMV UL50-53 inh
CCn1c2ccc(C)cc2c2nc(C)sc21
→ 66, 52, 92, 54*
CC1CCc2c(sc(NC(=O)COC(=O)c3ccco3)c2C#N)C1 (stereo not given)
→ 99, 90, /, 0
O=C(/C=C/c1ccc2c(c1)OCO2)Nc1ccc(S(=O)(=O)N2CCCCC2c2cccnc2)cc1 (stereo not given)
→ 103, 104, 105, -6

More results follow.
Values run as follows: Sa growth inh, Sa growth inh second temp, GIV-Gai inh, HCMV UL50-53 inh
CCCOc1ccc(Oc2nc(NCC(C)C)nc(N3CCOCC3)n2)nn1
→ 82, 86, 101, -18
O=c1oc2c3c(ccc2c2c1CCCC2)OCN(CCc1ccccc1)C3
→ 95, 78, 98, -43
COCC(=O)N(Cc1cc2cccc(C)c2[nH]c1=O)c1ccccc1
→ 110, 95, /, 0
O=C1C2ON(c3ccccc3)C(c3ccco3)C2C(=O)N1Cc1ccccc1 (stereo not given)
→ 92, 74, 95, -12
CC1CCCCN1c1nnc(NC(=O)c2csc3c2CCCC3)s1 (stereo not given)
→ 124, 85, 106, -20
CC(C)(C)C1CCc2c(sc3[nH]c(=S)[nH]c(=O)c23)C1 (stereo not given)
→ /, /, 109, -14
Cc1ccc(NC(=O)c2cc(S(=O)(=O)N3CCCc4ccccc43)ccc2F)cc1F
→ 95, 100, 106, /
O=C(C1CCC1)N1CCN(c2ccnc3cc(Cl)ccc23)CC1
→ 99, 79, 100, -65
O=CN1CCN(C(=O)Cc2ccc(Cl)cc2)CC1
→ 105, 84, /, -8
COCCCNC(=O)CCCN1C(=O)CCn2nc(-c3cccn3C)cc21
→ 96, 91, 109, /
O=C(Cn1ncc2c1-c1ccccc1OC2)N1CCCc2ccccc21
→ 89, 92, 105, /
CCn1cc(CN(C)C(=S)Nc2sc3c(c2C(=O)OC)CCC(C)C3)c(C)n1 (stereo not given)
→ 95, 99, 105, 4
O=C(Nc1ccccc1C(F)(F)F)C1COc2ccccc2O1 (stereo not given)
→ /, /, 105, -19
Cc1ccc2c(c1)-c1c(cnc3cc(-c4ccccc4)nn13)CO2
→ 101, 74, 104&99, -22&-22
CCc1ccc2c(c1)c1n[nH]c(=S)nc1n2C
→ 108, 56, 103, /
O=C(O)c1ccc(-c2ccc(F)cc2)s1
→ 103, 108, /, -52
CCCCOc1ccccc1C(=O)N(Cc1sccc1C)C1CCS(=O)(=O)C1 (stereo not given)
→ 98, 83, 100, -16
O=C(CNc1ccc(F)cc1)N/N=C1\CCc2ccccc21
→ 98, 99, /, -10
Cc1nn(CC(=O)NC2CC2)c(=O)c2cc3cc(F)ccc3n12
→ 84, 85, 99, -23
N#CCCOC1(C#CCN2CCCC2)CCCCC1
→ 90, 87, 100, -10
Cc1nn2c(=O)cc(COC(=O)c3ccc(NC(=O)COc4ccc(Cl)cc4)cc3)nc2s1
→ 97, 101, 109, /
CCCn1c(=O)n(C)c(=O)c2c(SCc3nc(-c4cccc(Cl)c4)no3)nc(CC(C)C)nc21
→ 93, 97, /, 8
CCOC(=O)n1ncc(C#N)c1N
→ 96, 86, /, -3
O=C(c1ccc2c(c1)OCCO2)N(Cc1cccnc1)c1nc2c(Cl)cccc2s1
→ 55, 38, 110&103, /
CCCC(=O)N1CCC(c2ccc(OC)cc2)=N1
→ 109, 80, 104, /
CCOC(=O)N/N=C/c1ccc2c(c1)OCCO2
→ 79, 88, /, -54
COCCN(C(=O)Nc1ccc(Cl)c(Cl)c1)C1CCN(C(C)C)CC1
→ 84, 84, 106, /
Clc1ccccc1-c1nc(NCc2cccnc2)c2ccccc2n1
→ /, /, 96, 3
CCCCc1nnc(SCc2cc(=O)c3cc(F)ccc3[nH]2)n1C
→ 89, 92, 106, /
CC1CC1c1ccco1 (stereo not given)
→ 68, 87, /, -14

Some of these compounds in order of SMILES length, lowest first:
Values run as follows: Sa growth inh, Sa growth inh second temp, GIV-Gai inh, HCMV UL50-53 inh
CC1CC1c1ccco1 (stereo not given)
→ 68, 87, /, -14
CCN1CCSC1=NCc1cccs1
→ 81, 88, /, -10
CCn1c2ccc(C)cc2c2nc(C)sc21
→ 66, 52, 92, 54*
N#CCCOC1(C#CCN2CCCC2)CCCCC1
→ 90, 87, 100, -10
CCCC(=O)N1CCC(c2ccc(OC)cc2)=N1
→ 109, 80, 104, /
O=C(Nc1ccccc1C(F)(F)F)C1COc2ccccc2O1 (stereo not given)
→ /, /, 105, -19
CC1CCCCN1c1nnc(NC(=O)c2csc3c2CCCC3)s1 (stereo not given)
→ 124, 85, 106, -20
CCCCc1nnc(SCc2cc(=O)c3cc(F)ccc3[nH]2)n1C
→ 89, 92, 106, /
COCC(=O)N(Cc1cc2cccc(C)c2[nH]c1=O)c1ccccc1
→ 110, 95, /, 0
CC(C)(C)C1CCc2c(sc3[nH]c(=S)[nH]c(=O)c23)C1 (stereo not given)
→ /, /, 109, -14
CN(C)c1ccc(CN(CC2CCCO2)C(=O)c2ccc(Cl)cc2)cc1 (stereo not given)
→ /, /, 101, -14
Cc1ccccc1OC1C(=O)N(CC2CCCO2)C1c1ccc2c(c1)OCO2 (stereo not given)
→ 99, 74, 99, -18
CCn1cc(CN(C)C(=S)Nc2sc3c(c2C(=O)OC)CCC(C)C3)c(C)n1 (stereo not given)
→ 95, 99, 105, 4
O=C(CC1CCN(S(=O)(=O)c2ccccc2)CC1)N1CCN(c2ccccn2)CC1
→ /, /, 96, -13
Cc1nn2c(=O)cc(COC(=O)c3ccc(NC(=O)COc4ccc(Cl)cc4)cc3)nc2s1
→ 97, 101, 109, /
O=C(/C=C/c1ccc2c(c1)OCO2)Nc1ccc(S(=O)(=O)N2CCCCC2c2cccnc2)cc1 (stereo not given)
→ 103, 104, 105, -6
CCOc1cc(C2C(C(=O)OCCOC)=C(C)NC3=C2C(=O)CC(c2ccc(Cl)cc2)C3)cc(Br)c1O (stereo not given)
→ /, /, 104, -8

Continuation.
Values run as follows: Sa growth inh, Sa growth inh second temp, GIV-Gai inh, HCMV UL50-53 inh
N#C/C(=C\C1CC=CCC1)c1nc2ccccc2[nH]1 (stereo not given)
→ 90, 76, 95, -10
CC1(C)CC(=O)C2=C(C1)NC(SCC(=O)Nc1ccccc1)=C(C#N)C2c1ccco1 (stereo not given)
→ 70, 82, 102, -17
CC1(C(=O)NCc2ccc3c(c2)OCO3)COC(c2ccccc2)OC1 (stereo not given)
→ 107, 105, 104, -5
C=CCN(c1nccs1)S(=O)(=O)c1ccc(C)cc1
→ 91, 89, 100, /
COCc1c(Br)c(C)nc2sc3c(=O)n(-c4ccccc4C(=O)OC)nnc3c12
→ /, /, 106, -125
Cc1cc(C)cc(NC(=O)Nc2ccccc2SCC2=NNC(=O)c3ccccc3O2)c1
→ /, /, 99, 5
Cn1c(=O)n(C)c2cc(N3CCOCC3)c(NS(=O)(=O)c3ccc(F)cc3)cc21
→ 102, 98, 100, 7
COc1cc(CNCCSc2nnnn2C)ccc1OCC(=O)NC(C)(C)C
→ /, /, 101, -13
Cc1cccc(Nc2c(-c3ccc(N(C)C)cc3)nc3ncccn23)c1
→ /, /, 124, -40
O=C(NCc1ccco1)c1ccc2c(c1)C(=O)N(Cc1ccco1)C2=O
→ 94, 73, 102, -20
COc1ccc(N2CCN(C(=O)CCN3C(=S)NC(C)(C)CC3C)CC2)cc1 (stereo not given)
→ 84, 78, 102, -22
COc1cc(C(=O)OCc2cc(=O)n3nc(C(C)C)sc3n2)cc(OC)c1OC
→ 91, 89, 104, /
Cc1cc(=O)c2ccc(C(F)(F)F)cc2[nH]1
→ 99, 81, 97, -7
O=C1NCCN(Cc2ccc(F)cc2)C1=O
→ 88, 89, 106, /
CCn1c(=O)c(-c2noc(C(=O)NC3CCCC3)n2)nn(-c2ccccc2)c1=O
→ /, /, 103, -113
COC(=O)C1CCN(S(=O)(=O)c2cc3c4c(c2)C(C)C(=O)N4CCC3)CC1 (stereo not given)
→ 108, 101, 111, /
CCN1CCCC1CNCc1ccccn1 (stereo not given)
→ 116, 102, 103, 4
Cc1cccc2cc(C(c3nnnn3CCc3ccccc3)N3CCN(c4nc5ccccc5s4)CC3)c(=O)[nH]c12 (stereo not given)
→ 107, 90, 99, -52
CCc1ccc(OCC(O)CN2CCN(CC)CC2)cc1 (stereo not given)
→ 91, 96, /, 2
CCCCn1cc(C2CC(=O)N(c3ccc(C)cc3)C2=O)c2ccccc21 (stereo not given)
→ /, /, 93, -2
CN(C)c1cc(Cl)nc(N(C)C)c1C#N
→ /, /, 104, -6
O=C(CC1Nc2ccccc2NC1=O)Nc1cccc2ccccc12 (stereo not given)
→ 98, 77, 105, -15
Cc1nc2nc(CNc3ccc(Br)cc3)[nH]n2c(=O)c1C
→ /, /, 106, -33
CCn1c(=O)c2ccccc2n(CC(=O)Nc2ccc3c(c2)OCO3)c1=O
→ 100, 104, 101, 11
Cc1ccc(Cn2c(=O)n(CCc3ccccc3)c(=O)c3c(C)c(C)sc32)cc1
→ 105, 89, 102, 4
COc1cc(CN(C(=S)NCC(=O)O)C2CCCC2)cc(OC)c1OC
→ 87, 82, 107, /
COc1ccc(/C=C(/NC(=O)c2ccco2)C(=O)N2CCCCCC2)cc1OC
→ 105, 99, 103, -14
CC(=O)Nc1ccc2oc(C)nc2c1
→ 97, 95, 112, 5
CCN(CC(=O)NC1CCS(=O)(=O)C1)C(=O)c1cc(OC)c(OC)c(OC)c1 (stereo not given)
→ 75, 96, /, -18
Cc1cccc(OCC(=O)Nc2cccc3cccnc23)c1C
→ 87, 88, 102, -38
C=CCSc1nc2c(c(=O)[nH]c(=O)n2C)n1C/C=C(\C)Cl
→ /, /, 103, -21
COc1ccc(C2=NCC(CSc3nnc(C(C)N(C)C)n3-c3ccccc3)S2)cc1 (stereo not given)
→ 95, 93, /, -11
Cc1ccc(C(=O)c2oc3ccccc3c2NC(=O)C(C)Oc2ccccc2Cl)cc1 (stereo not given)
→ 96, 91, 100, -19
CCCOC(=O)c1c(NC(=O)C2c3ccccc3Oc3ccccc32)sc2c1CCCC2
→ 113, 93, 101, 1
COc1ccc(S(=O)(=O)c2cc(NS(=O)(=O)c3ccccc3)cc(C(C)C)c2O)cc1
→ 72, 64, /, 8
